Screens as filed in PubChem.
ID4 binder = binders of human ID4 protein. AID 624137. small molecule microarray, Flag-ID4 binding, fluorescence F/B. hit rate 1.2% among 31,000. calls only;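 active means spot signal over background at p below 0.07 in all four prints; compounds were printed on slides so no solution concentration is given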;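 further: a binder raises fluorescence above local background on the spot; about 2 pmol printed per array spot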
Target sequence (P47928 whole entry, looked up): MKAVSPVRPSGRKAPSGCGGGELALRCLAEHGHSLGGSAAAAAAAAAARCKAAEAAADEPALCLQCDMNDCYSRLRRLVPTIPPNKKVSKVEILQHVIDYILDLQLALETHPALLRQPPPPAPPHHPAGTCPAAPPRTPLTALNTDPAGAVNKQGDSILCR
STAT3 SMM = binds human STAT3 on microarray. hit rate 0.2% among 17,000. P40763. AID 624138. Small molecule microarray, His-STAT3 binding, anti-His fluorescence. calls only;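 active means compounds whose four printed spots each show fluorescence over background unusually high for their array block, chance value under 7%; compounds were printed on slides so no solution concentration is given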;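 further: about 2 pmol printed per array spot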
Target sequence (P40763 whole entry, looked up): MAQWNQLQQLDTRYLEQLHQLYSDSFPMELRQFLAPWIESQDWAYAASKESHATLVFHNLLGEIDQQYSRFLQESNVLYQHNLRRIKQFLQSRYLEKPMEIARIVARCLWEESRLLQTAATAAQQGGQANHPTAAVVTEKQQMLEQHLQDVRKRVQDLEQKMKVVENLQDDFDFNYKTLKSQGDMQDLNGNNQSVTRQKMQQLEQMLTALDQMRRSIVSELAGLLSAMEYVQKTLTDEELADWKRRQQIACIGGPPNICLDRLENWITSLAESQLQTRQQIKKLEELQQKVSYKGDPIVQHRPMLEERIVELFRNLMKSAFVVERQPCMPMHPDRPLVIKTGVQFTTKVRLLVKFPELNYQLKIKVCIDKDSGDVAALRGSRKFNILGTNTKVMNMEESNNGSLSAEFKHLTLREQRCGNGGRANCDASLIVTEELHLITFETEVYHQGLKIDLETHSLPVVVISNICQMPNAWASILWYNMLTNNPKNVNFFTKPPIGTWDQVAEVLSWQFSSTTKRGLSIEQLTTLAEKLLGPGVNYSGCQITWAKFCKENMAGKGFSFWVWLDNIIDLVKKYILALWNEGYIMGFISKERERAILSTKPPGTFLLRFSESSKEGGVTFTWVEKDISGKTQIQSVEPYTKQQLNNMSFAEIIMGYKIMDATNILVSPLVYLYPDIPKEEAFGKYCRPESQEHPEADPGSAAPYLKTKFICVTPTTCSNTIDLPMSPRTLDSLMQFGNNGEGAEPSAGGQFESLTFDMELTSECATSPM
c-Myc SMM = binds human c-Myc on microarray | calls only | small molecule microarray, His-c-Myc binding, anti-His fluorescence | AID 624141 | hit rate 1.5% among 17,000;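 active means spot fluorescence over background with P-value below 7% in all four replicate spots, showing protein binding; compounds were printed on slides so no solution concentration is given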;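 further: score is binary with 100 for all four spots passing and 0 otherwise; about 2 pmol printed per array spot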
mut p53 SMM = mutant p53 (human) binding. calls only. hit rate 0.4% among 17,000. small molecule microarray binding, anti-GST fluorescence;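 active means compounds whose four printed spots each glow above background more than chance allows, each with a p-value under 7%; compounds were printed on slides so no solution concentration is given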;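 further: about 2 pmol printed per array spot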
Calls only; i = inactive; . = not tested or not shown; + = active, no number. An excerpt. The share of hits here may be higher or lower than overall.

SMILES	ID4 binder	STAT3 SMM	c-Myc SMM	mut p53 SMM
NC(=O)c1c(NC(=O)C(Cc2ccccc2)N2C(=O)c3ccccc3C2=O)sc2c1CCCC2 (configuration not stated)	+	i	i	i
C[C@H](CO)N1C[C@H](C)[C@@H](CN(C)C(=O)Nc2ccc(F)cc2)Oc2ccc(NC(=O)Cc3cn(C)c4ccccc34)cc2C1=O	i	i	i	i
C[C@H](CO)N1C[C@H](C)[C@H](CN(C)C(=O)NC2CCCCC2)Oc2ccc(NC(=O)Nc3ccc4c(c3)OCO4)cc2CC1=O	i	i	i	i
C[C@H]1CN([C@@H](C)CO)C(=O)c2cc(NC(=O)C3CC3)ccc2O[C@H]1CN(C)S(=O)(=O)c1cccs1	i	i	i	i
Cc1ccc(-n2c(SCC(N)=O)nnc2-c2ccco2)cc1	i	i	i	i
COC(=O)c1c2oc(c1C(=O)OC)C(=O)N(C)Cc1cn(nn1)C[C@H](Cc1ccccc1)NC(=O)N[C@H](CO)CC2	+	i	i	i
Cc1noc(C)c1S(=O)(=O)Nc1ccc2c(c1)C(=O)N([C@H](C)CO)C[C@H](C)[C@@H](CN(C)C(=O)NC(C)C)OCCCC[C@@H](C)O2	i	i	i	i
Cc1noc(C)c1NC(=O)Nc1cccc2c1O[C@@H](CN(C)C(=O)NC1CCCCC1)[C@H](C)CN([C@@H](C)CO)C2=O	i	i	i	i
Cn1c(S(=O)(=O)CC(N)=O)nc2ccccc21	i	i	i	i
N#CCCN(CCC#N)C(=O)C1c2ccccc2Oc2ccccc21	i	i	i	i
C[C@H](CO)N1C[C@H](C)[C@H](CN(C)C(=O)Nc2ccccc2)Oc2ccc(NC(=O)CCCN(C)C)cc2C1=O	i	i	i	i
CC(C)NC(=O)Nc1ccc2c(c1)C(=O)N([C@H](C)CO)C[C@@H](C)[C@@H](CN(C)Cc1ccccc1)OCCCC[C@@H](C)O2	i	i	i	i
Cc1noc(C)c1S(=O)(=O)Nc1cccc2c1O[C@@H](CN(C)Cc1ccncc1)[C@@H](C)CN([C@@H](C)CO)C2=O	i	i	i	i
Cc1cc(C)c(S(=O)(=O)NCC(=O)O)c(C)c1	i	i	+	i
CNC[C@@H]1OCCCC[C@H](C)Oc2ccc(NC(=O)C3CCCCC3)cc2C(=O)N([C@@H](C)CO)C[C@@H]1C	i	i	i	i
Cc1ccc(NC(=O)C(Cc2ccccc2)N2C(=O)C3C4CCC(C4)C3C2=O)cc1[N+](=O)[O-] (configuration not stated)	i	i	i	i
O=C(Nc1cccc(NS(=O)(=O)c2cccc([N+](=O)[O-])c2)c1)c1cccs1	i	i	i	i
CC(C)(C)[C@@H]1C=C(C(=O)N2CCOCC2)O[C@H](OCc2ccc(CO)cc2)C1	.	i	i	i
COc1ccc(C(=O)c2ccccc2)c(Oc2nc([N+](=O)[O-])nn2C)c1	i	i	i	i
CCS(=O)(=O)N(C)[C@H]1c2cc(C#N)ccc2OC(C)(C)[C@@H]1O	i	i	i	i

Three entries from above in another layout.
The line under a structure holds: ID4 binder, STAT3 SMM, c-Myc SMM, mut p53 SMM
- Cn1c(S(=O)(=O)CC(N)=O)nc2ccccc21
    i, i, i, i
- CC(C)NC(=O)Nc1ccc2c(c1)C(=O)N([C@H](C)CO)C[C@@H](C)[C@@H](CN(C)Cc1ccccc1)OCCCC[C@@H](C)O2
    i, i, i, i
- Cc1ccc(-n2c(SCC(N)=O)nnc2-c2ccco2)cc1
    i, i, i, i

Additional entries
SMILES	ID4 binder	STAT3 SMM	c-Myc SMM	mut p53 SMM
C[C@@H]1CN([C@@H](C)CO)C(=O)c2cccc(NC(=O)c3ccncc3)c2O[C@@H]1CN(C)S(=O)(=O)c1cn(C)cn1	i	i	i	i
CC(C)NC(=O)Nc1ccc2c(c1)C(=O)N([C@H](C)CO)C[C@H](C)[C@@H](CN(C)S(=O)(=O)c1cn(C)cn1)OCCCC[C@@H](C)O2	i	i	i	i
O=C(O)C1CC=CCC1C(=O)Nc1ccccc1 (configuration not stated)	i	i	i	i
Cc1noc(C)c1NC(=O)N(C)C[C@@H]1Oc2ccc(NC(=O)c3ccncc3)cc2CC(=O)N([C@@H](C)CO)C[C@H]1C	i	i	i	i
C[C@H](CO)N1C[C@H](C)[C@H](CN(C)C(=O)Nc2ccccc2)Oc2ccc(NC(=O)c3ccncc3)cc2CC1=O	i	i	i	i
Cc1noc(C)c1S(=O)(=O)N(C)C[C@@H]1Oc2ccc(NC(=O)Cc3cn(C)c4ccccc34)cc2CC(=O)N([C@@H](C)CO)C[C@@H]1C	i	i	i	i
CC(C)NC(=O)N(C)C[C@@H]1OCCCC[C@@H](C)Oc2ccc(N(C)C)cc2C(=O)N([C@H](C)CO)C[C@H]1C	i	i	i	i
Cc1ccc(C(Nc2ccccn2)c2ccc3ccc(C)nc3c2O)cc1 (configuration not stated)	i	i	i	i
C[C@@H]1CN([C@H](C)CO)C(=O)c2cccc(NS(C)(=O)=O)c2O[C@@H]1CN(C)C(=O)Nc1ccccc1	i	i	i	i
C[C@H]1CN([C@@H](C)CO)C(=O)c2cccc(NC(=O)C3CCOCC3)c2O[C@@H]1CN(C)S(=O)(=O)c1cccs1	i	i	i	i
C[C@@H]1CN([C@@H](C)CO)C(=O)Cc2cc(NC(=O)Cc3cn(C)c4ccccc34)ccc2O[C@H]1CN(C)C(=O)NC1CCCCC1	i	i	i	i
COc1ccc(S(=O)(=O)Nc2ccc3c(c2)CC(=O)N([C@@H](C)CO)C[C@@H](C)[C@H](CN(C)S(=O)(=O)c2cn(C)cn2)O3)cc1	i	i	i	i
CN(C)c1nc(SCCO)nc(N(C)C)n1	i	i	i	i
C/C(=C\C=C\C(C)C)CCC/C(C)=C/COc1c(O)cc2c(c1O)CNC2=O	.	i	i	i
C[C@@H]1CN([C@H](C)CO)C(=O)Cc2cc(NS(=O)(=O)c3cn(C)cn3)ccc2O[C@H]1CN(C)C	.	i	i	i
COc1cccc(NC(=O)COc2ccc(C(=S)N3CCN(C)CC3)cc2OC)c1	i	i	i	i
C[C@@H]1CN([C@H](C)CO)C(=O)Cc2cc(NC(=O)Nc3ccccc3)ccc2O[C@H]1CN(C)C(=O)Nc1ccccc1	i	i	i	i
CC(C)OC(=O)c1cn(Cc2c(F)cccc2F)c2sc(-c3ccc(NC(=O)C(C)C)cc3)c(CN(C)Cc3ccccc3)c2c1=O	+	i	+	i
Cc1noc(C)c1NC(=O)Nc1ccc2c(c1)C(=O)N([C@@H](C)CO)C[C@@H](C)[C@H](CN(C)C(=O)Nc1cccc3ccccc13)O2	.	i	i	i
Cc1noc(C)c1NC(=O)Nc1ccc2c(c1)C(=O)N([C@@H](C)CO)C[C@@H](C)[C@@H](CN(C)C)OCCCC[C@@H](C)O2	i	i	i	i
C[C@@H]1CN([C@@H](C)CO)C(=O)c2cccc(NC(=O)Nc3ccc4c(c3)OCO4)c2O[C@H]1CN(C)C	i	i	i	i
C[C@@H]1CN([C@H](C)CO)C(=O)Cc2cc(N(C)C)ccc2O[C@H]1CN(C)Cc1ccncc1	i	i	i	i
COc1ccc(CN(C)C[C@H]2Oc3ccc(NC(=O)Cc4cn(C)c5ccccc45)cc3C(=O)N([C@@H](C)CO)C[C@@H]2C)cc1	i	i	i	i
COc1ccc(NC(=O)Nc2ccc3c(c2)CC(=O)N([C@H](C)CO)C[C@@H](C)[C@H](CN(C)C)O3)cc1	i	i	i	i
C[C@@H]1CCCCO[C@H](CN(C)C(=O)NC2CCCCC2)[C@H](C)CN([C@H](C)CO)C(=O)c2cc(NS(=O)(=O)c3cn(C)cn3)ccc2O1	.	i	i	i
Cc1ccccc1CN1C(=O)C(O)(CC(=O)c2ccncc2)c2cc(Cl)ccc21 (configuration not stated)	i	i	i	i
CC(=O)CC(=O)N1C(=O)N(C)[C@@]2(C)Oc3ccccc3[C@@H]1[C@H]2COC(=O)c1ccc([N+](=O)[O-])cc1	i	i	i	i
COc1ccccc1CNS(=O)(=O)c1cc(C)ccc1OC	i	i	i	i
CC(C)NC(=O)Nc1ccc2c(c1)CC(=O)N([C@@H](C)CO)C[C@@H](C)[C@H](CN(C)Cc1ccc(C(F)(F)F)cc1)O2	.	i	i	i
Cc1cc(C(=O)Nc2cccc3c2O[C@@H](CN(C)C(=O)NC2CCCCC2)[C@@H](C)CN([C@H](C)CO)C3=O)n(C)n1	i	i	i	i
C=CC[C@]1(C(=O)OC)COC(c2ccc(OCCCO)cc2)=N1	i	i	i	i
C[C@@H]1CN([C@@H](C)CO)C(=O)c2cc(NC(=O)CCCN(C)C)ccc2O[C@@H](C)CCCCO[C@@H]1CN(C)S(=O)(=O)c1ccccc1	i	i	i	i
C/C=C(\C)C(=O)OC1CCC(=O)OC1/C=C/C(O)C(C)O (configuration not stated)	i	i	i	i
C[C@@H]1CN([C@H](C)CO)C(=O)Cc2cc(NC(=O)NC3CCCCC3)ccc2O[C@@H]1CN(C)S(C)(=O)=O	.	i	i	i
C[C@@H]1O[C@@H](O[C@H]2[C@H](OC(=O)[C@]34CCC(C)(C)C[C@H]3C3=CCC5[C@@]6(C)C[C@H](O)[C@H](O[C@@H]7O[C@H](CO)[C@@H](O)[C@H](O)[C@H]7O)[C@@](C)(CO)C6[C@H](O)C[C@@]5(C)[C@]3(C)CC4)OC[C@H](O)[C@@H]2O)[C@H](O)[C@H](O)[C@H]1O[C@@H]1OC[C@@H](O)[C@H](O[C@@H]2OC[C@](O)(CO)[C@H]2O)[C@H]1O (some centres not stated)	i	i	i	i
C[C@@H]1CN([C@H](C)CO)C(=O)c2cc(NC(=O)CCC(F)(F)F)ccc2O[C@@H](C)CCCCO[C@@H]1CN(C)Cc1ccccc1	i	i	i	i
C[C@H]1CN([C@@H](C)CO)C(=O)Cc2cc(NC(=O)CCN3CCOCC3)ccc2O[C@@H]1CN(C)S(C)(=O)=O	.	i	i	i
C[C@H](CO)N1C[C@H](C)[C@@H](CN(C)CC2CC2)Oc2ccc(NC(=O)Nc3ccc(F)cc3)cc2CC1=O	i	i	i	i
CCC(c1nc2ccccc2c(=O)n1-c1ccccn1)N1C(=O)c2ccccc2C1=O (configuration not stated)	i	i	i	i
CNC[C@@H]1Oc2ccc(NC(=O)Nc3c(C)noc3C)cc2CC(=O)N([C@@H](C)CO)C[C@@H]1C	i	i	i	i

Exported comma-delimited: 3 of the compounds above
structure,ID4 binder,STAT3 SMM,c-Myc SMM,mut p53 SMM
C=CC[C@]1(C(=O)OC)COC(c2ccc(OCCCO)cc2)=N1,i,i,i,i
C[C@@H]1CN([C@@H](C)CO)C(=O)c2cc(NC(=O)CCCN(C)C)ccc2O[C@@H](C)CCCCO[C@@H]1CN(C)S(=O)(=O)c1ccccc1,i,i,i,i
C/C=C(\C)C(=O)OC1CCC(=O)OC1/C=C/C(O)C(C)O (configuration not stated),i,i,i,i

The list continues.
SMILES	ID4 binder	STAT3 SMM	c-Myc SMM	mut p53 SMM
COc1ccccc1OCC(=O)Nc1cccc(-c2nnc(-c3ccccc3)o2)c1	i	i	i	i
O=C(O)CCC(=O)Nc1ccc(Br)c(Cl)c1	i	i	i	i
C[C@@H]1CN([C@@H](C)CO)C(=O)Cc2cc(NS(=O)(=O)c3cn(C)cn3)ccc2O[C@H]1CN(C)Cc1ccccc1	i	i	i	i
C[C@@H]1CN([C@@H](C)CO)C(=O)c2cc(NS(=O)(=O)c3cn(C)cn3)ccc2O[C@@H](C)CCCCO[C@H]1CN(C)S(=O)(=O)c1cn(C)cn1	i	i	i	i
C[C@@H]1CN([C@H](C)CO)C(=O)Cc2cc(NC(=O)NC3CCCCC3)ccc2O[C@H]1CN(C)S(=O)(=O)c1ccc(Cl)cc1	i	i	i	i
O=S(=O)(c1ccccc1)N(CC(F)(F)F)c1ccc(C(O)(C(F)(F)F)C(F)(F)F)cc1	i	i	i	i
C[C@H](CO)N1C[C@H](C)[C@@H](CN(C)S(=O)(=O)c2cn(C)cn2)Oc2ccc(NC(=O)C3CC3)cc2CC1=O	i	i	i	i
CC(=O)OCC/C(=C\CC1(O)C(C)CCC2C(C)(C)CCCC21C)COC(C)=O (configuration not stated)	i	i	i	i
C[C@H]1CN([C@@H](C)CO)C(=O)CCCn2nncc2CO[C@H]1CN(C)S(=O)(=O)c1ccc2ccccc2c1	i	i	i	i
C[C@H]1ON(c2ccc(C(=O)OC(C)(C)C)cc2)[C@@H](c2ccc(O)cc2)[C@@H]1C(=O)N1C(=O)OC[C@@H]1c1ccccc1	i	i	i	i
C[C@H](CO)N1C[C@H](C)[C@@H](CN(C)Cc2ccc3c(c2)OCO3)Oc2c(NS(C)(=O)=O)cccc2C1=O	i	i	i	i
CC(=O)Nc1ccc(NC(=O)CSc2nnc3c4ccccc4n(C)c3n2)cc1	i	i	i	i
C[C@H](CO)N1C[C@H](C)[C@H](CN(C)S(=O)(=O)c2ccccc2)Oc2ccc(NS(=O)(=O)c3cccs3)cc2CC1=O	i	i	i	i
CNC[C@@H]1OCCCC[C@@H](C)Oc2ccc(NC(=O)c3ccccc3)cc2C(=O)N([C@@H](C)CO)C[C@H]1C	.	i	i	i
C[C@@H]1CCCCO[C@H](CN(C)C(=O)c2ccncc2)[C@H](C)CN([C@@H](C)CO)C(=O)c2cc(N(C)C)ccc2O1	i	i	i	i
CC(C)(C)[C@H]1C=C(C(=O)N2CCOCC2)O[C@@H](OCCCCO)C1	.	i	i	i
Cc1nn2c(CN(C(=O)CN3CCOCC3)c3ccccc3)nnc2c2ccccc12	+	i	i	i
